Assay outcomes: PubChem, several laboratories
PABP polyA inh: PABP poly(A) RNA binding inhibitors, primary screen, biochemical, fluorescence polarization, uHTS. Polyadenylate-binding protein 1 (Homo sapiens), P11940. 1% of 290,000 active. inhibition, % at 35 µM;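 active means 50% or more with normal probe brightness, or confirmed in later tests; inconclusive means above 50% with abnormal brightness, or retests that disagree; inactive means below 50% or failed in later tests; about a fifth of its hits are not listed in these tables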;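 further: calls also rest on retests at 20 µM and on dose response follow-up; controls were probe without protein and protein plus probe with vehicle; some compounds called inactive have numbers as strong as hits; many hits fall short of the cut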
Target sequence (P11940 whole entry, looked up): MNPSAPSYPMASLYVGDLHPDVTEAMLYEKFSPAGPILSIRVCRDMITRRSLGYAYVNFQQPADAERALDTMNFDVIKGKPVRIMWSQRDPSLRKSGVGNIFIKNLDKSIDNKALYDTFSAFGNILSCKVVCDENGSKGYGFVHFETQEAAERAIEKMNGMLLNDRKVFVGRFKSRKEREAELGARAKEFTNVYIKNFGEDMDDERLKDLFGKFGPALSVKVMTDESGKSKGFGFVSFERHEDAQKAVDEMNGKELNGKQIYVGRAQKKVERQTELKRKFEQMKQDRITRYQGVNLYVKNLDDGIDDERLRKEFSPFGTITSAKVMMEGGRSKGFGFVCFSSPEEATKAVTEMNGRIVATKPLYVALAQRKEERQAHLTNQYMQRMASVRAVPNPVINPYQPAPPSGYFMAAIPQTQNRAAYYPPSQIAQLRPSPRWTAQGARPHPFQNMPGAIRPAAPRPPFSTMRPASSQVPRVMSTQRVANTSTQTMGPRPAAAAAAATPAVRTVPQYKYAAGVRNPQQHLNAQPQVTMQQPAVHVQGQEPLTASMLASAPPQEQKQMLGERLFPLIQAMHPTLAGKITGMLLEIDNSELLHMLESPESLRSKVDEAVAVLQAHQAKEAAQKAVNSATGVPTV
UUG fidelity: modulators of yeast start codon fidelity, primary screen, whole organism, S. cerevisiae, single point, plate reader; activity score, % at 18.7 µM; AID 602363, 2012; S. cerevisiae UUG-firefly luciferase reporter, luminescence/redox ratio; 0.13% of 350,000 active;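 active means replicate mean at a twofold rise or more, about +100% in these data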;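 further: firefly luciferase made from a UUG start codon reports start codon fidelity; reporter light over untreated wells divided by growth signal over untreated wells; some hits fall short of that in this replicate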
Rce1 inh: yeast Rce1p protease inhibitors, primary screen, biochemical, fluorescence, cell-free homogeneous; CAAX prenyl protease 2 (Saccharomyces cerevisiae (strain ATCC 204508 / S288c)), Q03530; yeast membranes, quenched prenylated peptide cleavage fluorescence; calls only; 0.27% of 290,000 active; AID 2563, 2010;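 active means fall in fluorescence gain of 50% or more versus controls, with final raw signal at or below 3038400; inconclusive means same 50% fall but final raw signal above 3038400; inactive means fall in fluorescence gain under 50%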;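 further: plate controls were neutral control wells for no effect and wells lacking membranes for full effect; tested at 10 µM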
Target sequence (Q03530 whole entry, looked up): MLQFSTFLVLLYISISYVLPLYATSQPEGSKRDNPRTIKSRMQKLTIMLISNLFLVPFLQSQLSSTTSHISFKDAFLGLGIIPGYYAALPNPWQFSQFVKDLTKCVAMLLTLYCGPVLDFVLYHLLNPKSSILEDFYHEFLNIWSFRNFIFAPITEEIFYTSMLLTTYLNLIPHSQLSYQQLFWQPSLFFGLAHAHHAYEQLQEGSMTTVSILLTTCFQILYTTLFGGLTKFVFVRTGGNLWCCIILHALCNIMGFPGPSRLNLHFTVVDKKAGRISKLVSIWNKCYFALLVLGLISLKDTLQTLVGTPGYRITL
MT1-MMP act inh: blockers of MT1-MMP proenzyme processing, primary screen, HT1080 RFP-PRO-GFP cells, GFP/RFP fluorescence | Matrix metalloproteinase-14 (Homo sapiens), P50281 | GFP/RFP ratio fluorescence, overnight; percent of plate control window, DMSO zero | GFP/RFP ratio change, % at 20 µM | 0.061% of 360,000 active | AID 651647, 2012;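 active means GFP/RFP ratio change of at least 30% with cell ATP level not reduced by more than half and red fluorescence within 50% of control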; further: strong numbers were not always called active
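Assay system: HT1080 RFP-PRO-GFP cells. Benchmarks: DMSO vehicle wells and RFP-L50D-GFP reporter cell wells. Times: overnight cell settling, then overnight compound exposure, 37 °C, 5% CO2. Compound: 20 µM single dose, 1% DMSO. Read-out basis: GFP/RFP fluorescence ratio.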
eIF4H FP inh: human eIF4H binding inhibitors, primary screen, translation initiation inhibitor project, biochemical, uHTS, fluorescence polarization | 0.94% of 290,000 active | inhibition, % at 35 µM | AID 2012, 2009 | Eukaryotic translation initiation factor 4H (Homo sapiens), Q15056 | eIF4H fluorescence polarization binding assay;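 active means 50% or more with normal probe brightness, or confirmed in later tests; inconclusive means above 50% with abnormal brightness, or retests that disagree; inactive means below 50% or failed in later tests; about a fifth of its hits are not listed in these tables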;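 further: calls also rest on retests at 20 µM and on dose response follow-up; 0% = protein and probe with vehicle and 100% = probe without protein; strong numbers were not always called active; many hits fall short of the cut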
Env fusion inh: inhibitors of HIV-1 Env-driven cell-cell fusion, primary screen, HeLa-JRFL effector, CEM21 target cells, luciferase. 1.1% of 360,000 active. AID 651610, 2012. inhibition, % at 12.3 µM;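 active means mean replicate inhibition score of at least 50 and every replicate individually at or above 50; inconclusive means only one of the two criteria met; inactive means mean below 50 and not all replicates reaching 50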;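 further: 0% = plate neutral controls and 100% = maraviroc near 300 nM; one replicate is shown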
CSC inhib: cancer stem cell viability inhibitors, primary screen, luminescence. cancer stem cell-like cells viability. inhibition, % at 7.5 µM. 1.1% of 300,000 active. AID 2717, 2010;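 active means mean at 75% or more and at least half the replicates too; inconclusive means mean and replicates disagree; tested in HMLE shEcad cells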;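 further: 0% = median of negative and 100% = median of positive control wells; the first replicate is given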
eIF4H FP inh retest: second read-out of eIF4H FP inh, no call of its own (marks repeat the call); inhibition, %; compound at 20 µM; confirmation average;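 mean of two retest wells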
PABP polyA inh retest: recorded beside PABP polyA inh, whose call it bears; inhibition, %; compound at 20 µM; confirmation repeats;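 mean of two retest wells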
MT1-MMP act inh RFP: further read-out of MT1-MMP act inh, marked with its call; RFP signal change, %; measured here: RFP expression control read;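 0 = vehicle wells; hits needed this value within 50% of zero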
Starred values were filed as active, the others as inactive; i = inactive; ? = inconclusive; / = no result given.

SMILES | PABP polyA inh | UUG fidelity | Rce1 inh | MT1-MMP act inh | MT1-MMP act inh RFP | eIF4H FP inh | Env fusion inh | CSC inhib | others
C#CCOCCOCCOCCNc1nc(N2CCOCC2)nc(N2CCN(C(=O)[C@H](CCC(=O)O)n3cc([C@@H](N)CCCCN)nn3)CC2)n1 | / | -2 | / | 2 | 5 | / | 23 | 10
CN(C)C1(CNC(=O)C2CCC(=O)N(CCc3ccc(Cl)cc3)C2)CCCCC1 (stereo unspecified) | 6 | 6 | i | 0 | 1 | -10 | / | -1
CN(Cc1ccccn1)C(=O)C1CCC(=O)N(CCc2ccc(Cl)cc2)C1 (stereo unspecified) | / | -9 | i | 2 | 2 | / | 3 | 4
O=c1ccc(Cl)cn1Cc1ccccc1F | -5 | -9 | i | 1 | 4 | -2 | -58 | -12
CCOC(=O)c1c(NC(=O)c2cc(CC(C)C)on2)sc(C(C)=O)c1C | -6 | -12 | i | -3 | 2 | -8 | 15 | -11
Cn1c(=O)c2c(nc(CN3CCN(c4cccc(Cl)c4)CC3)n2CCc2ccccc2)n(C)c1=O | / | 5 | i | -6 | -16 | / | / | -11
Cc1ccc(C(=O)NC2CCN(S(=O)(=O)c3ccccc3)CC2)cc1 | 3 | / | i | 0 | -3 | -5 | 4 | -2
COc1cccc(NC(=O)CSc2nnc(C)s2)c1 | -13 | -15 | i | 2 | 6 | 6 | -52 | -13
Nc1nnc(SCc2ccc(F)cc2)s1 | -1 | -9 | i | -1 | 4 | -7 | 2 | /
CC1(C(=O)NS(=O)(=O)c2cccs2)CCN1C(=O)c1ccco1 (stereo unspecified) | / | -12 | / | 0 | 7 | / | -4 | /
CCC(=O)c1ccc(OCC(=O)N2CCCC2)c(OC)c1 | 5 | / | i | 1 | 3 | 5 | 3 | -22
C/C=C/Cn1c(SCc2ccc(C)cc2)nc2c1c(=O)[nH]c(=O)n2C | 6 | -7 | i | / | / | -3 | / | -3
Cc1ccsc1/C=N/NC(=O)CNC(=O)c1c(F)cccc1Cl | -1 | -18 | i | -2 | -4 | 0 | -5 | -3
O=c1c(Cc2ccc(Cl)cc2Cl)c(O)ccn1CCCN1CCOCC1 | 10 | / | i | -2 | 0 | 2 | 9 | 0
COc1ccc(NC(=S)N2CCNC(=O)C2CC(=O)Nc2ccc(C)cc2)cc1 (stereo unspecified) | -1 | -31 | i | -1 | 0 | 1 | -16 | -3
CCn1c(CNC(=O)COc2ccc(C(C)C)cc2)nnc1SCC(=O)Nc1ccccc1F | 8 | -12 | i | -8 | -8 | 2 | / | -24
CCc1ccc(NC(=S)N2CCN(C)CC2)cc1 | 6 | -24 | i | 1 | 5 | 3 | -17 | -6
O=C(CSc1ncnc2c1cnn2-c1ccccc1)NCC1CCCO1 (stereo unspecified) | / | 3 | i | 0 | -15 | / | 15 | -2
COc1cccc(-c2cc(C(=O)N3CCN(S(=O)(=O)c4ccc(Br)cc4)CC3)[nH]n2)c1 | 2 | -11 | i | 4 | -5 | 2 | 3 | -7
Cc1ccc(-n2ncc(C(=O)Nc3cc(Cl)ccc3C)c2C2CCNCC2)cc1C | -14 | 7 | / | -10 | -6 | 5 | 16 | 20
COc1cc(/C(C#N)=C/c2cccc3ccccc23)c([N+](=O)[O-])cc1OC | 2 | / | i | 1 | 0 | 1 | 5 | 56
CCCSc1nnc2n(C)c(=O)c3c4c(sc3n12)CCC4 | 1 | -7 | i | 3 | -2 | 4 | / | 5
N#Cc1c(Nc2ccccc2)c(C=O)c[nH]c1=O | 2 | / | i | -2 | 2 | 6 | -11 | -17
Cc1ccc(C(=O)CCC(=O)N(C)CC(=O)Nc2ccccc2Br)cc1 | -6 | -3 | i | -4 | -1 | -4 | / | /
CCCOCC(O)CCc1n[nH]c(=S)n1-c1ccccc1 (stereo unspecified) | 7 | / | i | -1 | -4 | -3 | -28 | 6
CC1(C)CC(=O)C(C=N)=C(O)C1 | -8 | -18 | i | 5 | 5 | -6 | / | -1
CCOc1ncccc1C(=O)OCC(=O)N1CC(=O)Nc2ccccc21 | 4 | 3 | i | -1 | 3 | 0 | -84 | -28
COc1ccccc1NC(=S)N1CCN(c2nc(-c3ccccc3)cs2)CC1 | -6 | / | i | -8 | -7 | -4 | -2 | -3
COc1ccc(NC(=O)CSc2n[nH]c(-c3ccccn3)n2)cc1 | 2 | -15 | i | -3 | -4 | 14 | 13 | -3
CC1CCN(C(=O)CCC(=O)Nc2nnc(C3CCCCC3)s2)CC1 | 8 | -18 | i | 1 | 0 | 1 | -3 | -3

Arranged by formula weight (largest number first): part of the list above
SMILES | PABP polyA inh | UUG fidelity | Rce1 inh | MT1-MMP act inh | MT1-MMP act inh RFP | eIF4H FP inh | Env fusion inh | CSC inhib | others
O=C(CSc1ncnc2c1cnn2-c1ccccc1)NCC1CCCO1 (stereo unspecified) | / | 3 | i | 0 | -15 | / | 15 | -2
CC1CCN(C(=O)CCC(=O)Nc2nnc(C3CCCCC3)s2)CC1 | 8 | -18 | i | 1 | 0 | 1 | -3 | -3
COc1ccc(NC(=O)CSc2n[nH]c(-c3ccccn3)n2)cc1 | 2 | -15 | i | -3 | -4 | 14 | 13 | -3

(further entries)
SMILES | PABP polyA inh | UUG fidelity | Rce1 inh | MT1-MMP act inh | MT1-MMP act inh RFP | eIF4H FP inh | Env fusion inh | CSC inhib | others
CC1(c2ccc(Cl)cc2Cl)NC(=O)N(CC(=O)Nc2cccnc2Cl)C1=O (stereo unspecified) | / | -2 | i | 3 | 3 | / | -9 | -3
O=C(O)c1cncc(C#Cc2ccccc2)c1 | -4 | / | i | 4 | 4 | 5 | -5 | 1
COc1ccc(C(=O)/C=C(\C)Nc2ccc(NC(C)=O)cc2)cc1 | 2 | 74 | i | 2 | 4 | 5 | / | 2
O=C(O)c1cc([N+](=O)[O-])ccc1N1CCCCC1 | -4 | / | i | 14 | 3 | -3 | -67 | -7
O=C(/C=C/c1cccc(Cl)c1)NCCc1ccccc1 | ? | -15 | i | 3 | 5 | -6 | -18 | 12
COc1ccc(-n2nnnc2C(c2cccs2)N2CCN(C/C=C/c3ccccc3)CC2)cc1 (stereo unspecified) | / | 29 | / | 1 | -8 | / | -12 | /
Cc1cc2[nH]c3ccccc3c2cn1 | 17 | -9 | i | -1 | 2 | -7 | -10 | -5
CN(C)CCC(=O)c1cccc(Br)c1 | -1 | / | i | 4 | 4 | -13 | 24 | -13
CCC(Sc1nc(-c2ccccc2)cc(=O)[nH]1)C(=O)O (stereo unspecified) | 7 | -14 | i | 3 | -3 | 6 | -16 | -3
CCC(=O)Nc1nc2ccc(NC(=O)COc3ccccc3)cc2s1 | 12 | -9 | i | 2 | 4 | 7 | -11 | -1
COc1ccc(S(=O)(=O)Nc2nc3ccccc3nc2NCc2ccc3c(c2)OCO3)cc1 | 12 | -3 | i | 4 | 4 | 2 | 11 | /
Cc1c(NC(=O)C(=O)N/N=C/c2cccs2)c(=O)n(-c2ccccc2)n1C | 4 | / | i | 3 | 3 | -7 | -3 | -4
Cc1ccc(N2CCN(c3ccc(NC(=O)CCC(=O)O)cc3)CC2)cc1 | 0 | -7 | i | 4 | 7 | -3 | 1 | 7
CC1=C(Cl)C2=NS(=O)(=O)CCN2C=C1Cl | 7 | / | ? | -5 | 4 | -8 | -12 | -18
CCOc1cc(/C=N\NC(N)=O)cc(Br)c1OC(C)C | -2 | / | i | / | / | -4 | / | -10
CCc1cc2c(N3CCN(c4nnc(CC)s4)CC3)ncnc2s1 | 23 | -6 | i | -6 | -21 | -6 | / | 2
Cc1cccc(-n2nc(C(=O)c3ccco3)cc(-c3nc4ccccc4[nH]3)c2=N)c1 | -8 | -31 | i | -16 | -6 | 31 | -17 | 19
O=C(/C=C/c1ccc(F)cc1)NC(=S)N1CCCCC1c1cccnc1 (stereo unspecified) | 15 | 1 | i | -2 | 1 | 1 | -8 | -7
O=C(NC(Cc1ccccc1)C(=O)O)/C(=C/c1ccccc1)NC(=O)c1ccc(Br)o1 (stereo unspecified) | -3 | 0 | i | 4 | 9 | 10 | 7 | 2
COc1ccccc1C(=O)N/N=C(\C)CC(=O)Nc1ccc(Nc2ccccc2)cc1 | 5 | -17 | i | -2 | -1 | -4 | -1 | /
C=CCOc1ccn(C)c(=O)n1 | 52 | / | i | 4 | 4 | 4 | 16 | -5 | eIF4H FP inh retest=-5;PABP polyA inh retest=9
COc1cccc(-c2cnc(C(O)c3cc(F)cc(Cl)c3)[nH]2)c1 (stereo unspecified) | / | -21 | / | 8 | -3 | / | 9 | /
CN(c1ccc(C(=O)Nc2ccccc2Sc2ccccc2)cc1)S(C)(=O)=O | 6 | -3 | i | -6 | -9 | -6 | / | 3
CC(=O)NC(=S)Nc1sc2c(c1C#N)CCCCC2 | -19 | / | i | 2 | -5 | 1 | / | /
OCCNc1nc(Nc2ccc(Br)cc2)nc2ccccc12 | 12 | / | i | / | / | -5 | 13 | 49
CCOC(=O)C1(Cc2ccccc2C)CCCN(S(=O)(=O)CC)C1 (stereo unspecified) | 0 | 4 | i | 0 | 3 | -10 | -6 | -2
O=C(CN1C(=O)/C(=C/c2ccccc2F)Sc2ccccc21)NCC1CCCO1 (stereo unspecified) | 2 | 5 | i | 1 | 2 | -3 | 13 | -16
CC(=O)Nc1ccc(-n2nnnc2SCC(=O)Nc2cccc(NC(=O)c3ccco3)c2)cc1 | -22 | 3 | i | 0 | -1 | -20 | -33 | -7
CC1(C(=O)NS(=O)(=O)C2CC2)CCCN(C(=O)c2c(F)cccc2F)C1 (stereo unspecified) | / | -27 | / | 0 | 3 | / | 2 | /
O=C(NN1CC(C(=O)OCc2ccccc2F)CC1=O)c1ccccc1 (stereo unspecified) | 4 | -3 | i | 6 | 1 | 0 | 7 | 7
CCC1Sc2ccc(S(=O)(=O)Nc3ccc(OC)cc3)cc2NC1=O (stereo unspecified) | 4 | -10 | i | -1 | 0 | 5 | -4 | 18
COc1ccc(S(=O)(=O)N2CCCC(C(=O)NCc3ccco3)C2)cc1OC (stereo unspecified) | 10 | 0 | i | -4 | -3 | -6 | 5 | 0
COc1ccccc1N1CCN(CCCN2CC(=O)N3CCCCC3C2=O)CC1 (stereo unspecified) | / | -13 | / | 3 | 3 | / | -50 | /
COc1cc(-c2c(NC(=O)c3ccco3)oc3ccccc3c2=O)cc(OC)c1OC | / | -25 | i | 3 | 2 | / | 4 | -11
COc1ccc(S(=O)(=O)N2CCC(C(=O)N[C@H](C(=O)N3CCCCCC3)C(C)C)CC2)cc1 | / | 11 | i | 0 | -6 | / | 5 | -17
Cc1cccc(C(=O)NC2CCN(C(=O)NCc3ccccc3)CC2)c1 | -6 | 5 | i | 7 | 7 | 1 | 3 | 1
COC(=O)C1=NN(c2ccc(C)cc2)C2C(=O)N(c3ccccc3OC)C(=O)C12 (stereo unspecified) | 2 | -16 | i | -2 | 4 | -9 | 3 | -7
O=C(/C=C/c1ccc(Cl)c(Cl)c1)NCc1ccco1 | 17 | / | i | 12 | 9 | -7 | -13 | 19
